Bioassay records from PubChem BioAssay.
NS1 function inh: influenza NS1 inhibition; Potency, µM (top dose mostly 46.1 µM), for the others: at the highest dose activity, positive = more growth; actives 0.4% (n = 270,000); AID 2326; S. cerevisiae slowed by influenza A NS1, growth recovery by OD600; active means well fitted rising curve with a large enough effect; inconclusive means small, poorly fitted or top-dose-only effect; inactive means no such curve, though single readings can be large or run the other way; also: nearly all actives have a fitted effect of over 50% in size
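Recovery from NS1-induced slow growth read by OD600 in budding yeast switched to galactose assay medium (pH 6.0, -URA) at 1:100 dilution. Compound 23 nl per well; the matching strain lacking NS1 serves as control.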
Cruzain noTriton: cruzain (T. cruzi) inhibition without detergent; P25779; purified cruzain, Z-FR-AMC fluorescence, no detergent; Potency, µM, for the others: max response, negative = inhibition, most hits filed as inhibitors; actives 2.3% (n = 200,000); AID 1476;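 also: plate controls were enzyme without inhibitor for no effect and buffer without enzyme for full effect; nearly all actives have a fitted effect of over 40% in size; top concentration of the series not given in the record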
Target sequence (P25779 123-467 limits assumed): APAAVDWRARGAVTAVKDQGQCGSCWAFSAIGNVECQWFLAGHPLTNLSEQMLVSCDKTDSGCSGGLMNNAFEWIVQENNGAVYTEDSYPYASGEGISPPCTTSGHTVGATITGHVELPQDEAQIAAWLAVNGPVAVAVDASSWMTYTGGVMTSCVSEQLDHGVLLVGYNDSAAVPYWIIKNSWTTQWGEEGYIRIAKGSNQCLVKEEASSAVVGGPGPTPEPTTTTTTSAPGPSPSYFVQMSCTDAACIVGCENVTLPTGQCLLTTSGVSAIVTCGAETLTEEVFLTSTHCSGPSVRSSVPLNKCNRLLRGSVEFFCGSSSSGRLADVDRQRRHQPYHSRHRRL
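Detergent-free condition (0.00005% Triton X-100) in acetate buffer pH 5.5 with DTT. 1.5 nM enzyme and compound were pre-mixed 15 min, then 2 uM Z-FR-AMC substrate added; reaction progress from fluorescence change between first and third reads (60 s).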
Cruzain inh Det: cruzain (T. cruzi) inhibition with detergent. P25779. purified cruzain, Z-FR-AMC fluorescence, 0.01% Triton. Potency, µM, without a hit: max response, negative = inhibition, hits mostly inhibitors. actives 0.43% (n = 200,000). AID 1478;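 also: plate controls were neutral wells for no effect and buffer without enzyme for full effect; nearly all actives have a fitted effect of over 40% in size; top concentration of the series not given in the record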
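Purified cruzain (1.5 nM final) was preincubated with compounds for 15 min at room temperature in 100 mM sodium acetate pH 5.5, 5 mM DTT, 0.01% Triton X-100. Reaction started with 2 uM Z-FR-AMC; AMC fluorescence change over 60 s gave activity.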
Marburg entry inh: inhibitors of Marburg virus binding or cell entry; Marburg virus pseudotyped entry inhibition, cell reporter; control for the full effect not named in the record; about a third of the inactives were read at about 46 µM; Potency, µM (series often up to 37.8 µM), inactives show top-dose activity change, negative = inhibition, usual class: inhibitors; actives 1.8% (n = 300,000); AID 540276; active = well fitted inhibition curve with a large enough effect; inconclusive = small, poorly fitted or top-dose-only effect, or effect the other way; inactive = flat fitted curve, though single readings scatter; tested in HEK293 cells; about a fifth of its hits are not listed in these tables; also: % is scaled to controls: 0 for no effect and ±100 for the full control effect; luciferase read-out
RE007 growth inh: less growth of the S. pombe RE007 Vpr strain. Potency, µM (highest dose often 92.2 µM), for the others: at the highest dose activity change, negative = less growth. S. pombe RE007 Vpr strain, BacTiter-Glo ATP luminescence, 24 h; control for the full effect not named in the record. actives 0.21% (n = 360,000); active = well fitted falling curve with a large enough effect; inconclusive = small, poorly fitted or top-dose-only effect; inactive = no such curve, though single readings can be large or run the other way;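 also: % is scaled to controls: 0 for no effect and ±100 for the full control effect; nearly all actives have a fitted effect of over 50% in size; the assay follows cell death caused by Vpr and the record does not say whether a fall means rescue or toxicity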
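Fission yeast RE007 carrying one integrated HIV-1 vpr copy, seeded at OD 0.01 in PMG+AL medium with 23 nL pinned compound. Grown 24 h at 30 degrees; viability read by BacTiter-Glo luminescence after 5 min.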
2A StopGo: lowers the luciferase signal of an FMDV 2A StopGo reporter; human cells with a luciferase reporter of 2A StopGo recoding; control for the full effect not named in the record; Potency, µM (top dose mostly 57.9 µM), without a hit: top-dose signal change, negative = less light; actives 1.2% (n = 410,000); active = well fitted falling curve with a large enough effect; inconclusive = small, poorly fitted or top-dose-only effect; inactive = no such curve, though single readings can be large or run the other way; tested in HEK293T cells; also: % is scaled to controls: 0 for no effect and ±100 for the full control effect; nearly all actives have a fitted effect of over 45% in size; luciferase light after 4 h
Lassa entry inh: inhibitors of Lassa virus binding or cell entry | Potency, µM (doses to about 37.9 µM), inactives show top-dose activity change, negative = inhibition, hits mostly inhibitors | actives 1.2% (n = 300,000) | AID 540256 | Lassa virus pseudotype entry inhibition, cell reporter; control for the full effect not named in the record; active means well fitted inhibition curve with a large enough effect; inconclusive means small, poorly fitted or top-dose-only effect, or effect the other way; inactive means flat fitted curve, though single readings scatter; tested in HEK293 cells; also: % is scaled to controls: 0 for no effect and ±100 for the full control effect; nearly all actives have a fitted effect of over 50% in size; luciferase read-out
SARS PLP yeast: SARS-CoV PLP inhibition in yeast. S. cerevisiae expressing SARS-CoV PLpro, growth rescue; control for the full effect not named in the record. Potency, µM (top dose mostly 32.9 µM), for the others: top-dose activity, positive = growth rescue. actives 0.19% (n = 330,000); active means well fitted rising curve with a large enough effect; inconclusive means small, poorly fitted or top-dose-only effect; inactive means no such curve, though single readings can be large or run the other way; also: 0% is about no effect; nearly all actives have a fitted effect of over 55% in size; growth read by luminescence after 48 h
* marks the source's active call; other numbers are inactive results; ? = inconclusive; . = no result given; [ ] = another dose, or the depositor's remark. Unless noted, calls follow the shape of the dose curve; as a rule, active = well fitted curve in the direction sought with a large enough effect; inconclusive = small, poorly fitted or top-dose-only effect, or another doubt; inactive = no such curve, though single readings can be large; an effect the other way counts as inactive or inconclusive. Potency is read from the fitted curve at half-maximal effect. Rows were taken by chance; about 4.7% have a hit in one of these screens.

SMILES	NS1 function inh	Cruzain noTriton	Cruzain inh Det	Marburg entry inh	RE007 growth inh	2A StopGo	Lassa entry inh	SARS PLP yeast
COc1cccc(NC(=O)N2CCCC2C(=O)NC(C)C)c1 (centres undefined)	-1.6%	-2.0%	-1.8%	3.4%	5.6%	5.8%	-0.6%	2.7%
Cc1cc(S(=O)(=O)n2[nH]c(=O)c(CCO)c2C)c(Cl)cc1Cl	4.6%	.	.	-1.3%	-16.6%	-20.9%	?	3.2%
O=C1CCN(CCc2ccccc2)CCN1CCO	8.0%	.	.	.	29.5%	-12.9%	.	13.8%
N#Cc1nc(-c2ccccc2Cl)oc1N1CCCCC1	-14.1%	-7.8%	-2.5%	18.2%	?	10.2%	12.9%	-6.3%
CCOC(=O)c1cc(NC(=O)c2c(C)noc2C)cc(C(=O)OCC)c1	-21.3%	20.0%	-10.4%	-9.9%	-4.5%	-13.3%	0.0%	-0.9%
CCCC1(CCC)NC(=O)N(CC(=O)Nc2cccc(OC)c2)C1=O	-2.0%	-0.9%	5.3%	2.0%	2.0%	-14.2%	6.5%	3.8%
O=C(NCCc1ccc(Cl)cc1)C1CCCN(S(=O)(=O)N2CCCCCC2)C1 (centres undefined)	-18.4%	.	.	.	1.8%	-28.0%	.	0.7%
COc1ccccc1CNS(=O)(=O)c1cc(-c2cc(C)no2)ccc1C(C)C	-30.9%	.	.	?	-3.1%	14.6%	?	.
O=C(COc1nnc2ccccn12)N1CCN(S(=O)(=O)c2ccccc2)CC1	-1.4%	.	.	9.4%[46.1 µM]	-3.0%	3.9%	-18.9%	.
Cn1c(NC(=O)CC(C)(C)C)cc(=O)n(C)c1=O	-8.2%	-1.5%	0.2%	7.7%	-0.8%	-23.3%	10.9%	-13.8%
COCCNC(=O)C(=O)NCC1OCCN1S(=O)(=O)c1ccc(C)cc1 (centres undefined)	13.4%	.	.	15.2%	2.2%	-5.3%	3.4%	5.7%
Cc1cc2nc(-c3ccncc3)cc(C(F)(F)F)n2n1	2.6%	.	.	3.8%[46.1 µM]	9.8%	-15.4%	-6.8%	0.4%
COc1cccc(-c2nn(-c3ccccc3)cc2CN(C)C(C)c2ccncn2)c1 (centres undefined)	-0.1%	.	.	?	-11.6%	-7.5%	-7.5%	-0.2%
OCC[C@@H]1C[C@@H](O)[C@H](O)[C@]2(Cc3ccccc3O2)O1	-6.1%	.	.	.	-10.3%	-2.5%	.	3.1%
Cc1cccc(C(=O)c2c(N)sc3c2CCCC3)c1	11.2%	-25.4%	-13.4%	-22.3%	0.2%	7.5%	3.7%	-37.3%
O=C(NCCCN1CCCC1=O)c1cc(-c2ccc(F)cc2)nc2ccccc12	.	.	.	5.3%	-6.4%	-1.1%	-20.5%	-1.3%
Cn1c2c(c(=O)n(C)c1=O)[C@@]1(C(=O)Nc3ccccc31)C(C#N)=C(N)O2	-27.4%	17.9%	-6.2%	?	-11.2%	?	-8.2%	-18.1%
CC1CN(S(=O)(=O)c2ccc(NC(=O)c3cc(-c4ccccc4O)n[nH]3)cc2)CC(C)O1 (centres undefined)	.	?	-12.2%	11.6µM*	-2.7%	?	20.6µM*	3.0%
CSc1cnn(Cc2ccccc2)c(=O)c1SCc1ccccc1	-44.4%	6.5%	-5.1%	-3.9%	15.7%	-1.3%	?	-46.9%
CCOc1ccccc1N(CC(=O)N1CCCCCC1)S(=O)(=O)c1ccc(C)cc1	5.3%	.	.	-10.4%	1.4%	39.8%[activator]	-22.0%	0.3%
Cc1ccc2c(c1)N(C(=O)N1CCC(C(=O)Nc3cccc(F)c3)CC1)CCO2	.	6.2%	-4.5%	.	.	?	1.4%[46.1 µM]	.
Cc1ccc(SCC(=O)c2cc(C)c(O)c(C)c2)cc1	-54.8%	.	.	.	?	28.0%	.	-0.9%
COC(=O)c1c(NC(=O)c2ccc(Br)s2)sc2c1CCC2	-2.2%	10µM*	-5.8%	-11.8%	-9.9%	-7.2%	-1.3%	-2.8%
COc1ccc(Cl)cc1NC(=O)NCCCl	-0.7%	-3.2%	5.2%	4.6%	2.9%	6.3%	7.8%	-3.9%
COc1ccc(C(=O)COC(=O)C(CCSC)NC(=O)COc2ccccc2)cc1 (centres undefined)	.	.	.	1.3%	-19.8%	13.3%	?	-1.1%
OCC1CCCCN1C(=S)NCc1ccco1 (centres undefined)	3.5%	.	.	.	7.0%	1.8%	.	0.1%
CCCCNC(=O)CN1C(=O)C(CC)Oc2ccc(Cl)cc21 (centres undefined)	-7.1%	2.9%	-1.6%	-3.7%	7.2%	-1.4%	-22.5%	-1.9%
CC(C)(C)OC(=O)NCCc1nnc(SCc2cccc(Cl)c2)o1	-7.0%	.	.	-16.3%[46.1 µM]	11.5%	-2.6%	-22.6%	-2.5%
COc1ccc(C(=O)OCC(=O)c2ccc[nH]2)c(OC)c1	.	.	.	?	4.4%	23.6%	6.6%[46.1 µM]	0.0%
O=C(CSc1nc2ccsc2c(=O)n1CC1CCC(C(=O)O)CC1)c1ccc(Cl)cc1 (centres undefined)	.	.	.	26.4%[46.1 µM]	1.2%	-17.5%	?	-3.0%
CC1CCN(c2oc(-c3ccccc3F)nc2C#N)CC1	-52.1%	?	-24.7%	.	-6.2%	?	.	-8.1%
COCCNC(=O)CN1CCC(NC(=O)c2ccco2)CC1	-0.6%	.	.	0.8%[46.1 µM]	-13.4%	-18.7%	17.0%	-2.3%
CCn1c(SCC(=O)Nc2ccccc2F)nnc1-c1ccoc1C	-0.4%	.	.	-8.3%[46.1 µM]	21.1%	7.1%	-1.1%	1.5%
Cc1ccccc1NS(=O)(=O)c1nnc(NC(=O)c2ccccc2F)s1	-0.6%	.	.	.	-3.5%	-10.2%	.	-4.1%
CCOc1ccc(NC(=O)CN(C)C(=O)c2ccccc2SCC(=O)N2CCCC2)cc1OCC	.	.	.	?	-11.0%	-5.7%	1.6%	4.8%
C/C(=N\NC(=O)c1nnn(-c2nonc2N)c1CN(C)c1ccccc1)c1cccc(O)c1	17.9%	.	.	.	-2.7%	-9.4%	.	-2.4%
CC(=O)c1ccc(S(=O)(=O)N2CCN(C(=O)C3CCCC3)CC2)cc1	3.2%	.	.	7.9%[46.1 µM]	3.5%	-14.2%	.	0.3%
Cc1ccc(C(=O)c2cc3ccccc3o2)cc1[N+](=O)[O-]	-1.1%	.	.	0.4%[46.1 µM]	-17.3%	23.5%	21.0%[46.1 µM]	0.1%
O=C(O)c1ccc2c(c1)[C@@H]1C=CC[C@@H]1[C@H](c1ccccn1)N2	.	.	.	-4.3%	-8.7%	-15.4%	7.7%	.
CCOc1ccc(-c2csc(Cn3c(CN4CCN(C)CC4)nc4ccccc4c3=O)n2)cc1	9.2%	-3.6%	1.4%	?	1.7%	-15.6%	?	0.3%
O=C1C=C(O)c2cccc(O)c2C1=O	5.5%	.	.	.	?	?	.	-1.8%
Cc1nc2ccc(NC(=S)N3CCC(C)CC3)cc2nc1C	.	.	.	14.8%[46.1 µM]	-0.9%	26.8%	3.9%[46.1 µM]	-0.8%
FC(F)(F)c1cc(-c2cccs2)nc(-n2cc(Cl)cn2)n1	-0.3%	7.4%	-4.6%	1.3%	-13.2%	?	20.6%	2.1%
O=C(NCCCc1ccccc1)C1CCC(CNc2c(N3CCCCC3)c(=O)c2=O)CC1 (centres undefined)	0.8%	.	.	-9.3%[46.1 µM]	-2.6%	-14.7%	?	1.3%
CN(C)c1nc(-c2cccs2)cc(C(F)(F)F)c1C#N	-2.5%	.	.	7.6%[46.1 µM]	-0.8%	-16.0%	5.2%	0.2%
Cc1cccc(NC(=O)NC2CC3CCC(C2)N3Cc2ccco2)c1 (centres undefined)	-0.5%	.	.	.	-7.6%	-4.0%	.	-0.2%
O=C(N/N=C/c1ccc([N+](=O)[O-])o1)c1cc2ccccc2o1	-19.5%	.	.	.	6.3%	-37.0%	.	-7.6%
CCCCCSc1nnc(-c2cc(Br)ccc2N)c(=O)[nH]1	-77.1%	3.4%	-16.7%	-17.5%[46.1 µM]	-9.5%	6.5%	7.7%	-11.0%
COC(=O)CN(C(=S)Nc1ccccc1)C1CC(=O)N(c2ccc(OC)cc2)C1=O (centres undefined)	14.6%	7.0%	-1.9%	9.9%	-3.0%	-10.0%	11.0%	1.5%
CC(=O)Nc1cccc(C(=O)N/N=C/c2cccnc2)c1	0.8%	.	.	?	-9.6%	31.7%[activator]	-0.4%	0.0%
Other structures.
SMILES	NS1 function inh	Cruzain noTriton	Cruzain inh Det	Marburg entry inh	RE007 growth inh	2A StopGo	Lassa entry inh	SARS PLP yeast
CCCn1c(CCC(=O)Nc2cccc(CC)c2)nc2cccnc21	.	-10.4%	-3.0%	6.0%[46.1 µM]	.	-23.7%	-10.5%[46.1 µM]	.
COc1ccc(-c2csc(-c3nc(-c4ccc(Br)s4)cs3)n2)cc1F	.	-3.1%	-0.2%	23.4%[46.1 µM]	.	5.2%	-2.2%[46.1 µM]	.
Cc1ccc(OCC(=O)N/N=C/C=C/c2ccco2)cc1C	-0.8%	-19.6%	-9.4%	-27.7%	-9.7%	12.9%	-4.6%	-46.9%
O=C(Nc1ccccc1F)Nc1ccccc1F	-5.6%	.	.	.	-15.6%	41.9%[activator]	.	-1.5%
O=C(CN1C(=O)c2ccccc2S1(=O)=O)NCc1ccccc1Cl	6.1%	-2.8%	-2.4%	-6.7%	-5.5%	6.7%	2.5%	-8.9%
Cc1cccc(NC(=S)NC(NC(=O)OCc2ccccc2)C(Cl)(Cl)Cl)c1 (centres undefined)	-0.8%	?	?	?	-17.4%	.	?	-4.2%
C=CCOc1ccc2c(c1)C(=NO)c1cc(OCC=C)ccc1-2	-65.2%	?	-1.1%	-0.4%	-11.6%	-20.1%	.	-4.6%
COc1ccc(C2(CNC(=O)Cc3ccc(OC)c(OC)c3)CCCC2)cc1	-2.4%	.	.	-28.1%[46.1 µM]	52.0%	?	-11.4%	-1.8%
CSc1nc2c(c(-c3ccccc3)c1C#N)CCC2	.	.	.	11.5%	-8.9%[3.69 µM]	-4.6%	12.8%	.
COc1ccc(Cl)cc1-c1n[nH]c(=S)n1C1CCCCC1	2.4%	2.4%	3.3%	?	11.2%	-12.5%	10.6%	16.4%
